Screening data (PubChem)
FGF22 binding: binders of human FGF22 protein, primary screen, FGF22 synaptogenesis inhibitor project, biophysical, thermal shift, single point | Fibroblast growth factor 22 (Homo sapiens), Q9HCT0 | recombinant FGF22 thermal shift, SYPRO orange fluorescence; percent of sucrose octasulfate shift, DMSO zero | calls only at 9.99 µM | 1.5% of 340,000 active;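 active = melting point raised past a set limit in the mean and every replicate; inconclusive = no clear call; three in four hits are not shown here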
HNF4A DNA FP: change in binding of human HNF4A to DNA, primary screen, biochemical, fluorescence polarization, FITC-DNA | activity change, % at 10 µM | Hepatocyte nuclear factor 4-alpha (Homo sapiens), P41235 | 1 h | AID 1224865, 2016 | 0.3% of 360,000 active; in the data active = activity change above about 30%, passing the limit was not always enough;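 note: controls were the assay level and a saturating level of protein; the project sought stronger binding though the title names inhibitors; some compounds called inactive have numbers as strong as hits; positive values seem to mean higher polarization but the record does not say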
UCH37 inh: inhibitors of human UCH37 deubiquitinase, primary screen, biochemical, Ub-AMC cleavage, fluorescence; AID 588478, 2011; 0.33% of 330,000 active; purified proteasome/UCH37; Ubiquitin carboxyl-terminal hydrolase isozyme L5 (Homo sapiens), Q9Y5K5; inhibition, % (concentration not given with the values);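 active = mean of two replicates above 20%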;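 note: 0% = compound-free wells with enzyme and 100% = wells lacking proteasome; stock transfer was 100 nL into about 20 µL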
Target sequence (Q9Y5K5 whole entry, looked up): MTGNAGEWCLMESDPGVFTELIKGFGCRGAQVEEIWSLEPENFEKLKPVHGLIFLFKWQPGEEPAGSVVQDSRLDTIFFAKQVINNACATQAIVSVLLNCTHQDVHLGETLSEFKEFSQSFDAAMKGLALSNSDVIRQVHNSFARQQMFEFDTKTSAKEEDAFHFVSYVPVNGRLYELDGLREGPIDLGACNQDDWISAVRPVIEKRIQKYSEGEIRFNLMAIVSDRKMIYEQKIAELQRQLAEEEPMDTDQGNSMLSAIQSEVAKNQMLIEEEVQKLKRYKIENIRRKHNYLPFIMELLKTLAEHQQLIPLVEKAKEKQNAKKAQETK
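Schedule: 30 min plus 25 min, room temperature / Material: human UCH37 within purified proteasomes / Technique: AMC fluorescence intensity at 355/460 nm / Buffer or medium: pH 7.4 Tris-HCl (50 mM) with ovalbumin, ATP-MgCl2, DTT / Controls: wells without proteasome as full block, compound-free enzyme plus substrate as uninhibited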
B2AR ag: beta2AR agonists driving receptor internalization, primary screen, cell-based, FAP fluorogen, flow cytometry. response, % (test concentration not listed). 0.43% of 340,000 active. Am2.2-beta2AR cells; reference of the scale not given here. Beta-2 adrenergic receptor (Homo sapiens), P07550;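 active = response above a set limit, near 3 SD of response in nonfluorescent compounds, cut at about 42% in these data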;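 note: stock transfer was 100 nL into about 11 µL; a reference agonist was the positive control; negative values mostly stem from fluorescent compounds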
Target sequence (P07550 whole entry, looked up): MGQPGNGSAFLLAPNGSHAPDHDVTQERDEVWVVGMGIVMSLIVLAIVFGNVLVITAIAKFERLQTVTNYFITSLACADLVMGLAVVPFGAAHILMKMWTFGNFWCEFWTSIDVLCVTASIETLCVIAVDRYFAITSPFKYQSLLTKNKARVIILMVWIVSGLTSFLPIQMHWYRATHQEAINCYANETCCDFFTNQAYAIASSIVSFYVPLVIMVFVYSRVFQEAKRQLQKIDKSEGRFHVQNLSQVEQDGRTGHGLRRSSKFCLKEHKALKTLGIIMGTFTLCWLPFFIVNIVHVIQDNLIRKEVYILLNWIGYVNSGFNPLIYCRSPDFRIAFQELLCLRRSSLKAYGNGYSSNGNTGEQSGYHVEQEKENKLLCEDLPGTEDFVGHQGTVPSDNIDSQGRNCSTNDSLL
ALR inh: inhibitors of human ALR sulfhydryl oxidase, primary screen, biochemical, H2O2 detection, HRP-luminol luminescence, single point; inhibition, % (no concentration beside the values); FAD-linked sulfhydryl oxidase ALR (Homo sapiens), P55789; purified ALR, DTT oxidation; 3.8% of 290,000 active;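 active = mean and each replicate at 75% or more; inconclusive = only one of the two met; inactive = neither met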;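 note: stock transfer was 7.5 nL into about 7.5 µL; 0% = neutral wells and 100% = wells with inactivated enzyme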
Target sequence (P55789 whole entry, looked up): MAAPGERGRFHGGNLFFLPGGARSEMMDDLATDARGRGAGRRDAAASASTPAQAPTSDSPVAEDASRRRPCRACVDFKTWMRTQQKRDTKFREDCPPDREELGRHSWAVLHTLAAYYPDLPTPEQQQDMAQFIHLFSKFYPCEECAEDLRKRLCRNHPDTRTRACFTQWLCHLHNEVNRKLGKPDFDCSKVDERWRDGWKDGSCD
Ecoli rRNA inh: reduced GFP signal of wild-type E. coli, primary screen, bacterial rRNA inhibitor project, GFP/RFP fluorescence, OD600, single point | E. coli WT GFP vs humanized-ribosome RFP mutants, 24 h; active compounds read low; DMSO median 0, no signal -100 | GFP signal change (wild-type ribosome), % (no concentration beside the values) | 1.6% of 350,000 active | AID 720706, 2013;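 active = significant combined selectivity score with lowered wild-type GFP, culture density cut under 30%, mutant RFP and density less affected; inactive = any of these conditions unmet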; note: one replicate is shown; some compounds called inactive have numbers as strong as hits
E coli growth: E. coli growth inhibition, primary screen, OD600. Escherichia coli growth, 23 h; active compounds read low. OD600 absorbance (concentration not given with the values). 0.21% of 330,000 active;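 active = OD600 absorbance below the run mean of sample wells minus 3.6 SD, in any replicate, cut at about 0.56 in these data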;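 note: stock transfer was 300 nL into about 60 µL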
Ecoli rRNA inh OD600: recorded beside Ecoli rRNA inh, whose call it bears; OD600 change, %; measured here: OD600 growth;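 optical density of the mix in the first replicate; 0 = DMSO median and -100 = no signal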
Ecoli rRNA inh RFP: further read-out of Ecoli rRNA inh, marked with its call; RFP signal change, %; measured here: RFP humanized mutant strains;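 first replicate; 0 = DMSO median and -100 = no signal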
Active calls of the source: *; i = inactive; ? = inconclusive; · = not tested or not shown; + = active, no number.

No.	Compound	FGF22 binding	HNF4A DNA FP	UCH37 inh	B2AR ag	ALR inh	Ecoli rRNA inh	Ecoli rRNA inh OD600	Ecoli rRNA inh RFP	E coli growth
1	CC(c1ccon1)N(C)C(=O)CCc1nnc(Cc2ccc(-c3ccccc3)cc2)o1 (stereo not drawn)	i	-0.6	1.3	-5	·	-5	-9	1.2	0.69
2	COc1cc2c(cc1OC)C(c1ccc(-c3ccc(Cl)cc3Cl)o1)=NCC2	·	11	2.9	17	1	·	·	·	0.64
3	Cn1c(=O)c2nc(SCc3ccccc3)n(C)c2n(C)c1=O	·	4.5	0.4	-1	·	1	2	0.2	0.7
4	Cc1ccc(NC(=O)CSc2nnc(CN3CCOCC3)n2-c2ccccc2)cc1	·	0.7	1.9	0	1	·	·	·	0.71
5	Cn1cccc1CNC(=O)Nc1ccccc1	·	-1.9	2.6	-1	-8	·	·	·	0.66
6	Nc1c(C(=O)N/N=C/c2ccc(OCc3ccccc3)cc2)cnn1-c1ccccc1	i	0.5	·	-4	-5	5	3	0.3	·
7	NC(=O)c1ccsc1NC(=O)COC(=O)CNC(=O)c1ccc(F)cc1	i	-2.4	-3.3	-3	2	3	3	2.1	0.71
8	COc1ccc(-c2cc(=O)c3cc(C)ccc3[nH]2)cc1	i	0.3	-1.5	-4	6	4	9	-9.1	0.7
9	CC1=NCC(C)c2c1[nH]c1ccccc21 (stereo not drawn)	·	1.6	-75	22	-10	·	·	·	0.67
10	CCOC(=O)CNc1nc(-c2ccncc2)nc2ccccc12	·	0.2	1.3	7	-10	·	·	·	0.73
11	Cc1cccc(NC(=O)CN(C)S(=O)(=O)c2cccc3nsnc23)c1C	·	-0.2	0.5	0	-1	·	·	·	0.68
12	CSCCC(NC(=O)c1ccco1)C(=O)NCc1ccc2c(c1)OCO2 (stereo not drawn)	i	0.3	4.3	1	·	7	22	2.5	0.71
13	CC(C)C(=O)Nc1cccc(NC(=S)NC(=O)c2ccccc2Cl)c1	·	3.0	1.7	-6	5	·	·	·	0.67
14	COc1ccccc1NS(=O)(=O)c1ccc(C)c(NC(=O)C2CCCO2)c1 (stereo not drawn)	i	-1.0	2.0	-2	·	-8	-6	1.3	0.66
15	CC(C(=O)NC1CCCCCC1)N(c1ccccc1)S(C)(=O)=O (stereo not drawn)	·	-0.8	2.4	-3	·	·	·	·	0.69
16	O=C(CS(=O)(=O)c1cccc(C(F)(F)F)c1)Nc1ccccc1Cl	·	-2.4	1.0	2	·	·	·	·	0.69
17	CCNC(=O)CCSc1nnc(-c2ccco2)o1	i	1.0	1.5	-3	-4	10	22	-0.4	0.67
18	C[C@@H]1CN(S(=O)C(C)(C)C)[C@H](CCO)/C1=C\CCO (stereo partly drawn)	i	2.8	·	-2	·	12	5	1.0	·
19	NC(=O)Cc1nc2scc(-c3ccc(Cl)cc3)c2c(=O)[nH]1	i	2.9	-1.3	-5	-3	-4	-3	12	0.71
20	O=C(O)c1ccc2c3c(cccc13)C(=O)N(OS(=O)(=O)c1ccccc1)C2=O	i	-2.0	-138	-1	34	3	1	1.1	0.66
21	COc1ccccc1/C=C/C(=O)Nc1ccc2c(c1)OCCO2	·	1.8	4.5	-2	2	·	·	·	0.71
22	NC(=O)c1ccccc1NC(=O)/C=C/c1cccc(Cl)c1	·	-2.2	1.0	-11	0	·	·	·	0.71
23	CCC(=O)C(C#N)(c1ccc(OC)c(OC)c1)C(C)C (stereo not drawn)	·	-0.8	2.4	-5	-10	·	·	·	0.68
24	CCn1c(SCC(=O)NC2CC2)nnc1-c1ccccc1	i	0.4	·	·	·	3	7	-3.0	·
25	Cc1ccccc1C(=O)O/N=C(\N)c1ccccc1	i	-1.0	-1.4	-3	-2	5	11	-1.1	0.69
26	Cc1ccc(S(=O)(=O)N2CCN(Cc3nnc(-c4c(-c5ccccc5)noc4C)o3)CC2)cc1	i	-0.1	-0.5	-1	-25	-2	-22	6.2	0.69
27	CC(=O)CSc1nc2c(c(=O)[nH]c(=O)n2C)n1Cc1ccccc1Cl	i	-0.2	·	-4	23	-9	-8	-0.7	·
28	COc1cccc2c1OCC(CN1CCN(Cc3ccccc3F)C(CCO)C1)=C2 (stereo not drawn)	i	-0.1	4.2	3	0	-6	-6	0.6	0.67
29	CC(NS(=O)(=O)c1ccc(Cl)cc1)C(=O)Nc1ccc2c(c1)OCCO2 (stereo not drawn)	i	2.6	4.0	-9	-1	-2	10	2.2	0.7
30	Cc1oc(-c2cccs2)nc1CN1CCN(CC(C)C)C(CCO)C1 (stereo not drawn)	i	2.0	-42	-14	0	3	9	-1.9	0.66
31	C[C@H](O)[C@@H]1CN2CCc3c([nH]c4ccccc34)[C@@H]2C[C@@H]1N(C)C(=O)Nc1ccccc1	i	-0.1	·	·	·	1	5	-1.0	·
32	COc1cccc(CN2CCNC(=O)C2CC(=O)NCCc2nc(C)c(C)s2)c1OC (stereo not drawn)	i	0.8	-0.8	-1	14	8	12	-0.4	0.69
33	COCCCNC(=O)C(C#N)c1nc2ccccc2nc1N1CCCC1 (stereo not drawn)	·	-35	-7.5	-14	2	·	·	·	0.76
34	Cc1nc(SC(C)C(=O)Nc2cccc(C(F)(F)F)c2)c2c(C)c(C(=O)O)sc2n1 (stereo not drawn)	i	1.7	6.7	1	-15	-20	-33	-18	0.69
35	CCc1ccc(S(=O)(=O)c2cn(C)c3cc(OC)c(OC)cc3c2=O)cc1	i	3.8	-5.0	15	-2	6	3	-2.1	0.63
36	CC(=O)c1cccc(NC(=O)c2ccc([N+](=O)[O-])o2)c1	i	2.9	7.1	1	-17	·	·	·	0.44*
37	CC1Cc2ccccc2N1C(=O)c1cc2sccc2n1Cc1ccccc1 (stereo not drawn)	·	1.8	3.1	7	3	·	·	·	0.77
38	CC(C)C[C@@H](CN1CCCC1CN1C(=S)NC[C@@H]1Cc1ccc(O)cc1)N1C[C@H](Cc2ccccc2)N(CC2CCCCC2)C1=S (stereo partly drawn)	i	4.0	·	10	·	-4	-1	-2.3	·
39	COc1ccc(-c2nc(S(=O)(=O)c3ccccc3)c(N3CCCC3)o2)cc1	i	-0.1	·	·	·	1	0	-0.3	·
40	Cc1ccc(CNC(=O)C(NS(=O)(=O)c2cccc3nsnc23)c2ccccc2)cc1 (stereo not drawn)	·	2.2	2.1	2	-4	·	·	·	0.65
41	Cc1ccc(NC(=O)c2ccccc2N(C)S(C)(=O)=O)cc1C	·	2.0	1.4	9	-2	·	·	·	0.75
42	COc1ccc(N2CCN(C(=O)c3cc4c(-c5cccc(OC)c5)nn(C)c4s3)CC2)cc1	·	1.7	0.1	17	8	·	·	·	0.71
43	COc1ccc(OC)c(C2C(C(=O)c3ccco3)=C(O)C(=O)N2CCN2CCOCC2)c1 (stereo not drawn)	i	1.1	·	-2	-10	8	10	0.2	·
44	O=S1(=O)C[C@H](N2CCOCC2)[C@@H](COCc2ccccc2)N1	i	-3.6	·	·	·	8	15	1.4	·
45	CCN1CCC(O)(/C=C/c2ccc(C(C)C)cc2)C(C(=O)/C=C/c2ccc(C(C)C)cc2)C1 (stereo not drawn)	i	5.2	·	39	·	-50	-63	-7.3	·
46	Cc1csc2ncc(C(=O)NCc3ccccn3)c(=O)n12	i	6.5	-273	-2	3	6	4	-1.7	0.74
47	O=C(Nc1ccc2c(c1)OCO2)c1cc(C2CCCCN2C(=O)CCCc2ccccc2)on1 (stereo not drawn)	i	-0.1	·	·	·	-9	-6	-0.1	·
48	CSc1nnc(NC(=O)c2nc(S(=O)(=O)Cc3ccccc3F)ncc2Cl)s1	i	-0.9	·	19	18	3	-9	13	·
49	CCOc1ccc(NC(=O)c2sccc2-n2cccc2)cc1	i	-2.5	3.2	-3	-2	-1	3	-0.9	0.69
50	CCCCCCC(=O)N/N=C/c1ccco1	·	-2.4	·	-4	97*	·	·	·	·
51	CC(=O)/C(C#N)=C1\NC(=O)C(Cc2ccc(F)cc2)S1 (stereo not drawn)	i	-2.2	7.1	-1	·	·	·	·	0.64
52	CC(=O)Oc1c(C)c2c3c(c1OC(C)=O)[C@@H](C)CC[C@@H]3[C@@H](C)C[C@H]2C=C(C)C	i	4.1	-2.7	5	-11	-1	4	-3.3	0.82
53	Cc1cn2c(-c3ccncc3)nnc2s1	·	-5.8	6.6	11	4	·	·	·	0.71
54	CCn1cc(Br)c(C(=O)NC(=S)Nc2ccc(C(=O)OC)cc2)n1	·	-1.9	-2.3	-2	-5	·	·	·	0.7
55	O=C(NC(=S)NC1CCS(=O)(=O)C1)c1ccccc1 (stereo not drawn)	i	-2.7	4.1	-1	15	9	23	0.1	0.69
56	CC(=O)NN1C(=O)/C(=C\c2ccc(C)cc2)SC1=S	·	3.4	5.7	-1	-4	·	·	·	0.68
57	Cc1cc(NC(=O)CCSc2ccccc2)no1	i	1.6	2.4	1	-4	4	5	-0.7	0.72
58	CC1(C)CC(=O)C=C(Nc2ccc(Br)cc2F)C1	i	-1.2	5.3	1	0	4	2	-5.1	0.69
59	COC(=O)c1c[nH]c2c1-c1cc(C(=O)OCc3ccccc3)n(S(=O)(=O)c3ccc(C)cc3)c1C(=O)C2=O	i	-4.8	·	-7	·	15	8	0.2	·
60	CC(C)c1ccc(NC(=O)C2C3C=CC4(CN(Cc5cccnc5)C(=O)C24)O3)cc1 (stereo not drawn)	i	1.3	5.5	3	-2	-3	5	0.5	0.69

(listing goes on)
No.	Compound	FGF22 binding	HNF4A DNA FP	UCH37 inh	B2AR ag	ALR inh	Ecoli rRNA inh	Ecoli rRNA inh OD600	Ecoli rRNA inh RFP	E coli growth
61	COc1ccc(SC[C@H](CC(C)C)N2CCN(CCc3ccccc3)CCC2=O)cc1	·	2.2	-31	9	?	·	·	·	0.79
62	CCOC(=O)c1sc(N2C(=O)C(O)=C(C(=O)c3ccco3)C2c2ccc([N+](=O)[O-])cc2)nc1C (stereo not drawn)	+	-2.5	0.6	5	·	-18*	-6.5*	6.2*	0.65
63	CCCCCCCCN1C(=O)[C@H](CC(=O)NCCCOCCCC)C[C@@]2(C(=O)OC)CC(C)(C)CC=C12	i	-0.1	·	·	·	13	12	4.9	·
64	Cc1cccc(NC(=O)NCCN2C(=O)C3C4C=CC(C4)C3C2=O)c1 (stereo not drawn)	i	3.3	1.2	-5	-11	5	6	1.2	0.66
65	C#Cc1cccc(NC(=O)C2CCN(C(C)=O)CC2)c1	i	5.6	0.6	-3	-10	15	2	3.1	0.72
66	CC1=Nn2c(nnc2-c2cccs2)SC1	·	-6.8	1.7	3	4	·	·	·	0.75
67	COC(=O)C(Cc1ccccc1)NC(=O)CNC(=O)c1sc2ccccc2c1Cl (stereo not drawn)	i	2.0	-0.3	6	·	-5	-12	1.5	0.71

Rewritten with two lines to a compound: entries from further up
Values run as follows: FGF22 binding, HNF4A DNA FP, UCH37 inh, B2AR ag, ALR inh, Ecoli rRNA inh, Ecoli rRNA inh OD600, Ecoli rRNA inh RFP, E coli growth
64) Cc1cccc(NC(=O)NCCN2C(=O)C3C4C=CC(C4)C3C2=O)c1 (stereo not drawn)
→ i, 3.3, 1.2, -5, -11, 5, 6, 1.2, 0.66
62) CCOC(=O)c1sc(N2C(=O)C(O)=C(C(=O)c3ccco3)C2c2ccc([N+](=O)[O-])cc2)nc1C (stereo not drawn)
→ +, -2.5, 0.6, 5, ·, -18*, -6.5*, 6.2*, 0.65

A portion of the library. The share of hits here may be higher or lower than overall.
